D2 agonist – activates the human D2 dopamine receptor | P14416 | 0.084% of 360,000 active | activation, % (concentration not given with the values) | DiscoveRx PathHunter D2 beta-arrestin, luminescence, 90 min; 100% = 57 uM dopamine signal; in the data active = activation above about 40%; inconclusive = about 15% to 40%; inactive = below about 15%; further: compound concentration not given in the record; the text of the record calls up to 30% inactive
Target sequence (P14416 whole entry, looked up): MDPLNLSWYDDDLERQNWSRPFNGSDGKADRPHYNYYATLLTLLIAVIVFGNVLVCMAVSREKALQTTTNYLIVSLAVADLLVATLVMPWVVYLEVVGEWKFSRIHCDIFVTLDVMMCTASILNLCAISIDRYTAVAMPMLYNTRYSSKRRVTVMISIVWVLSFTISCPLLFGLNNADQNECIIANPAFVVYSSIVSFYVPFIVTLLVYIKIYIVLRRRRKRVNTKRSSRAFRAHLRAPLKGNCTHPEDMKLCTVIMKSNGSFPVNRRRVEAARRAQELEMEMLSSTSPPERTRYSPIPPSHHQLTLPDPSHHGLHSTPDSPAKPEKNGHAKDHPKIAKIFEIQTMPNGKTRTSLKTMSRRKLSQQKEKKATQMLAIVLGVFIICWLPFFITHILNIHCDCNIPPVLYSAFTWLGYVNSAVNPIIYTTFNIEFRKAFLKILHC
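Agonist mode: compounds alone added to overnight-plated D2 PathHunter cells for 90 min at 37 C, with 57 uM final dopamine (EC100) defining full response. Beta-arrestin recruitment detected by chemiluminescent reagent, read after 1 h at ambient temperature.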
PINK1 modulator – changes PINK1 expression | Potency, µM (titrated, usually from 76.6 µM), inactives show at the top dose activation (PINK1 increase), actives largely listed as activators | 0.2% of 410,000 active | PINK1 immunofluorescence, high-content cytometry, 24 h; active = well fitted activation curve with a large enough effect; inconclusive = small, poorly fitted or top-dose-only effect; inactive = flat fitted curve, though single readings scatter; cell line not stated here;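 further: potency means the concentration at half of the fitted maximal effect; % of control where 0% means no effect; nearly all actives have a fitted effect of over 65% in size; a mitochondrial uncoupler was the plate control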
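Compound titrations (5 concentrations, 24 h) on a stable cell line; DMSO and CCCP controls. Endpoint: fixed-cell PINK1 immunofluorescence with mitochondrial, cell and nuclear markers, scanned by microplate cytometer.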
CtBP-E1A inh – inhibitors of CtBP/E1A interaction | AlphaScreen GST-E1A/His-CtBP binding, 1536-well; active compounds read low; control for the full effect not named in the record | activity change, % (no concentration beside the values) | 0.49% of 340,000 active | AID 651724; in the data active means activity change below about -65%; inconclusive means about -30% to -65%; inactive means above about -30%; further: on the % scale 0 is the no-effect control and ±100 the full control effect
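AlphaScreen with 125 nM GST-E1A and 125 nM His-CtBP (5X stocks) in Tris pH 8.0, 300 mM NaCl, BSA, Tween 20, TCEP. Compounds preincubated 2 h at 37 deg C, then glutathione donor/nickel acceptor beads added for 1 h at 37 deg C in dark.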
TRPML1 blocker – inhibitors of human TRPML1 channel; activity change, negative = inhibition, % (test concentration not listed); Q9GZU1; 0.02% of 390,000 active; TRPML1-inducible cells, Ca2+ dye fluorescence, FDSS; active compounds read low; inhibition of EC80 agonist-evoked calcium signal; in the data active means activity change below about -50%; inconclusive means about -30% to -50%; inactive means above about -30%;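 further: stimulus is agonist 54-4 at its EC80 concentration; on the % scale 0 is the no-effect control and ±100 the full control effect; compound concentration not given in the record; the text of the record puts the active cut at -80%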
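TRPML1-DL cells, Tet-induced overnight (~16 h, 37 °C) at 1,500 cells/well, were loaded with Ca8 no-wash dye plus quencher for 45-90 min at room temperature. Compounds were pinned during FDSS kinetic reading; agonist 54-4 at EC80 (4 uM final) then added.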
Six1-Eya2 blk – inhibitors of human Six1/Eya2 interaction; activity change, % (concentration not given with the values); Q15475+O00167; 0.56% of 360,000 active; AID 651725; AlphaScreen GST-Six1/His-Eya2 binding, biochemical; active compounds read low; control for the full effect not named in the record; in the data active = activity change below about -65%; inconclusive = about -30% to -65%; inactive = above about -30%; further: on the % scale 0 is the no-effect control and ±100 the full control effect
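GST-Six1 + His-Eya2 (5X stock: 250/500 nM); Tris pH 8.0, 300 mM NaCl, 0.05% BSA, 0.02% Tween 20; GSH donor/Ni acceptor beads; 1 h 37 °C dark; AlphaScreen readout.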
TRPML1 ag – human mucolipin-1 channel agonism. Q9GZU1. AID 624414. TRPML1-expressing cells, Ca2+ dye fluorescence, FDSS; host cell line not named in the record; reference of the full effect not given here. 0.12% of 410,000 active. activation, % (test concentration not listed); in the data active = activation above about 50%; inconclusive = about 30% to 50%; inactive = below about 30%; further: 0% is about no effect; the text of the record puts the active cut at 80%
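Cells: TRPML1-DL, 1X Tet inducer, ~16 h at 37 degrees C/5% CO2. Dye: ABD Ca8 no-wash + quencher, 45-90 min RT. Read: 10 s baseline, compound add, 110 s agonist phase; 54-4 EC80 (4uM final), 110 s antagonist phase.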
Starred values were filed as active, the others as inactive; ? = inconclusive; . = not tested or not shown; & = joins results of further samples; [ ] = dose if it differs, or a comment. Compounds as they come; any-hit rate near 1%.

mol	D2 agonist	PINK1 modulator	CtBP-E1A inh	TRPML1 blocker	Six1-Eya2 blk	TRPML1 ag
Cc1ccc(S(=O)(=O)N2CCCCC2)cc1NC(=O)CCN1C(=O)C2CC=CCC2C1=O (configuration not stated)	-2.0	0.2%	.	8	0	-0.5
COc1ccc(S(N)(=O)=O)cc1C(=O)NCC1(N2CCCCC2)CCCCC1	-1.2	1.1%	-2	-7	8	0.5
CN(CC1CCCO1)S(=O)(=O)c1ccc(C(=O)Nc2ccccc2F)cc1 (configuration not stated)	-0.1	-0.3%	-3	2	12	-0.1
CCOc1ccc(Cn2nnc(C(=O)NCCc3ccccc3)c2N)cc1	1.0	4.6%	6	-13	0	0.5
Cc1cc(CN2CCCC(C(=O)Nc3ccc(-c4nc5ccccc5[nH]4)cc3)C2)n[nH]1 (configuration not stated)	-2.7	8.6%	?	2	-17	0.4
Cc1nnc(N2CCOCC2)c2ccccc12	-4.1	0.7%	3	8	0	0.0
NC(=O)c1ccc(N2CCCCCC2)c([N+](=O)[O-])c1	0.1	0.6%	-2	85	-4	-0.7
COCCn1nnnc1C(c1cc2ccc(C)cc2[nH]c1=O)N(Cc1ccco1)Cc1cccs1 (configuration not stated)	0.6	1.2%[38.3 µM]	-22	2	-9	1.9
CCN(C(=O)CSc1nnc2ccccn12)c1c(N)n(Cc2ccccc2)c(=O)[nH]c1=O	-5.0	0.2%	7	-8	4	-0.8
O=C1OCc2nc3cc4c(cc3c(-c3ccc(F)cc3)c21)OCO4	0.4	1.7%	.	49	2	1.5
CN(C(=O)CSc1nc2ccccc2c(=O)n1-c1ccc(F)cc1F)C1CCS(=O)(=O)C1 (configuration not stated)	-2.1	-1.7%	8	19	5	0.9
CCCCNC(=O)/C(=C/c1ccccc1)NC(C)=O	-4.8	-0.2%	-1	1	10	0.7
O=C(CSc1nc2ccccc2n1CC(=O)N1CCCC1)NCc1ccc2c(c1)OCO2	0.7	-4.6%[38.3 µM]	4	-11	2	0.1
COc1ccccc1C(=O)Nc1ccc2[nH]ncc2c1	0.6	0.7%	-9	-8	-5	-0.4
COc1ccccc1N(C)S(=O)(=O)c1ccc(C(=O)NCc2ccc3c(c2)OCO3)cc1	-0.8	-0.1%	21	-11	0	1.8
CC1C(=O)N(Cc2cn(CCC3OCCO3)nn2)CCS(=O)(=O)N1Cc1ccc(-c2ccncc2)cc1 (configuration not stated)	-1.3	0.8%	7	11	5	-0.6
COc1ccc2nc(C)cc(Nc3cccc(C(=O)O)c3)c2c1	-3.7	0.6%	-16	-4	-10	0.0
O=C(CN1CCN(Cc2ccccc2Cl)CC1)N/N=C/C=C/c1ccco1	-1.8	0.2%	-4	-8	-17	-0.1
Cc1ccc(C(=O)C=Cc2cccc(C)c2)cc1	0.4	-1.9%	1	0	-1	-0.1
COC(=O)c1ccc(N/C=C/C(=O)c2ccc(OC)c(OC)c2)cc1	0.6	?	6	-1	-2	0.3
CNC(=S)N1CCN(c2c(F)cc3c(=O)c(C(=O)O)cn(C4CC4)c3c2OC)CC1C (configuration not stated)	-0.7	0.5%	2	18	-2	-0.5
CCN1CCN(c2nc3c(C)cccn3c(=O)c2/C=C(\C#N)C(=O)NCCOC)CC1	3.8	-1.2%	-4	3	6	0.6
CC(C)N1C(=O)c2ccccc2C1C(=O)NCCc1ccccc1 (configuration not stated)	7.7	0.0%	0	20	1	0.8
CCOc1ccc(CCNC(=O)c2cccc3c2C(=O)N(CCOC)C3)cc1OCC	0.4	1.0%	-1	9	-5	-1.5
O=S(=O)(c1ccccc1)N1CCN(c2ncnc3scc(-c4ccccc4)c23)CC1	-0.6	-2.8%	-10	51	-11	1.3
CCc1ccccc1NC(=O)c1ccc(F)c(S(=O)(=O)N2CCC(C(N)=O)CC2)c1	-3.7	2.6%[38.3 µM]	-5	24	2	0.3
O=C(NCc1ccc(N2CCCC2=O)cc1)Nc1cccc(Cl)c1	1.1	.	1	-1	0	0.4
O=C(CSc1nc2c(cnn2-c2ccccc2)c(=O)[nH]1)NC1CCS(=O)(=O)C1 (configuration not stated)	-0.2	-0.7%	.	2	-3	0.3
CC(C)Oc1cc(C(=O)NC2CCCCC2)c2ccccc2n1	-0.4	1.8%	-1	3	0	1.2
C=CCNC(=O)C(C(=O)OCC)C1CCCCC1 (configuration not stated)	-2.4	-1.6%	2	3	7	0.6
Cc1sc(-n2c(C)ccc2C)c(C#N)c1C	-0.2	?	0	6	-3	1.8
CCCCCCCC(=O)N1CCN(c2cc3c(cc2F)c(=O)c(C(=O)O)cn3CC)CC1	-1.2	0.5%	-2	-16	4	3.4
O=c1oc2ccccc2c(Nc2cccc3cccnc23)c1[N+](=O)[O-]	-6.3	0.3%	-8	-10	-5	-0.2
O=C(COC(=O)c1ccccc1)NCc1cccs1	1.4	-1.3%	.	9	2	0.4
O=C(COc1ccccc1Cl)Nc1ccccc1C(=O)N1CCCCC1	-4.6	3.4%	-2	10	1	0.6
CCN1C(=O)[C@H]2[C@@H](c3ccc(-c4ccc5c(c4)OCO5)cc3)N3CCC[C@@]3(C(=O)OC)[C@H]2C1=O	-0.9	-0.6%	-4	78	0	-0.7
Cc1ccc(-c2nc3c4ccccc4ccn3c2Cc2ccsc2)cc1	-7.7	0.5%	0	5	6	0.6
COc1ccc(-n2nnc3c(=O)n(CC(=O)N4CCC(C)CC4)cnc32)cc1	2.4	-0.1%	1	-4	1	-0.7
C=CCn1c(SCC(=O)Nc2cc(Cl)ccc2C(=O)O)nc2sc(C)c(C)c2c1=O	?	1.5%	.	18	9	0.8
COc1ccc(C(=O)CCC(=O)Nc2ccc(C)c(Cl)c2)cc1	.	-0.1%	.	32	.	4.6
O=C(CN1C(=O)COc2ccccc21)Nc1ccccc1F	-2.5	1.8%	.	-14	-7	0.0
COc1ccc(NC(=O)C2C3C=CC(O3)C2C(=O)NCc2cccnc2)cc1 (configuration not stated)	-1.7	4.6%	8	-1	-1	0.3
COc1ccccc1NS(=O)(=O)c1ccc(C)c(C(=O)NCc2cccnc2)c1	-2.2	1.4%	17	-14	13	1.2
COC(=O)[C@]1(C)N[C@H](c2ccc(-c3ccccc3)cc2)[C@@H]2C(=O)N(C)C(=O)[C@@H]21	-0.7	-0.7%	4	-6	-6	-0.7
Cn1ccnc1Sc1ccc(C=O)cc1[N+](=O)[O-]	-2.3	-1.1%	4	32	10	0.4
O=C(Cn1cnc2c(oc3ccccc32)c1=O)NCC1CCCO1 (configuration not stated)	-3.2	1.3%	-13	-2	-9	2.6
N#Cc1c(=O)c2nc(NCCCO)ncc2n2c(=O)c3ccccc3[nH]c12	-5.2	2.1%	?	18	?	1.7
CCOc1ccc(Oc2ccc(S(=O)(=O)N3CCOCC3)cc2NC(=O)CCNC(C)=O)cc1	-3.2	1.7%	1	-2	5	0.4
CCCCN(C)CCNC(=O)CN1C(=O)CSc2ccc(S(=O)(=O)N3CCCCC3)cc21	-2.0	-1.4%&-5.1%	9	-6&2	2	-0.5&0.0
Cc1ccccc1C1CCCN(Cc2nc(C3CC3)no2)C1 (configuration not stated)	1.5	1.7%	5	-11	16	0.8
COC(=O)C1SCC2C(=O)N(Cc3ccc(F)cc3)CC(=O)N21 (configuration not stated)	-2.0	-0.9%	.	8	0	0.4
CCOc1ccc(CNC(=S)N/N=C/c2ccncc2)cc1	2.9	-1.3%	.	-8	-5	1.9
Cc1ccc(NS(=O)(=O)c2ccc(C(=O)NCC3CCCO3)cc2)cc1 (configuration not stated)	0.2	1.0%	-20	-4	-12	6.0
O=C(Nc1ccc2c(c1)nc1n2CCOC1)C1CCCCC1	1.1	-1.3%	1	-10	14	-0.3
O=C(CN1C(=O)CSc2ccc(S(=O)(=O)N3CCOCC3)cc21)NCCCN1CCOCC1	-0.3	-1.1%	-21	4	3	0.6
O=C(NNc1cc(Cl)ccc1Cl)c1cccnc1Cl	-2.2	0.4%	7	2	2	-0.2
O=C(CSc1nnc(-c2ccc(F)cc2)o1)N1CCN(C(=O)c2ccco2)CC1	1.4	-5.0%[38.3 µM]	-13	-9	-2	0.8
CCOC(=O)N1CCN(c2ccc(N3C(=O)CCCC3=O)cc2[N+](=O)[O-])CC1	-2.7	0.3%	7	-7	-2	0.4
Cc1ccnc(NC(=O)CNC(=O)c2ccco2)c1	-2.4	-1.7%	-1	20	7	-0.3
Cc1nc(C(N)=O)c(N)n1CCc1ccccc1	-2.8	1.4%	-6	-28	1	-0.3

Compounds shown so far that contain an NH in an aromatic ring:
mol	D2 agonist	PINK1 modulator	CtBP-E1A inh	TRPML1 blocker	Six1-Eya2 blk	TRPML1 ag
Cc1cc(CN2CCCC(C(=O)Nc3ccc(-c4nc5ccccc5[nH]4)cc3)C2)n[nH]1 (configuration not stated)	-2.7	8.6%	?	2	-17	0.4
COCCn1nnnc1C(c1cc2ccc(C)cc2[nH]c1=O)N(Cc1ccco1)Cc1cccs1 (configuration not stated)	0.6	1.2%[38.3 µM]	-22	2	-9	1.9
CCN(C(=O)CSc1nnc2ccccn12)c1c(N)n(Cc2ccccc2)c(=O)[nH]c1=O	-5.0	0.2%	7	-8	4	-0.8
COc1ccccc1C(=O)Nc1ccc2[nH]ncc2c1	0.6	0.7%	-9	-8	-5	-0.4
O=C(CSc1nc2c(cnn2-c2ccccc2)c(=O)[nH]1)NC1CCS(=O)(=O)C1 (configuration not stated)	-0.2	-0.7%	.	2	-3	0.3
N#Cc1c(=O)c2nc(NCCCO)ncc2n2c(=O)c3ccccc3[nH]c12	-5.2	2.1%	?	18	?	1.7

Screening results (PubChem)
